Compound activity (PubChem)
NPR1 antag = antagonists of human natriuretic peptide receptor Npr1; AID 1347048; hit rate 1.6% among 76,000; P16066; HEK293 hNpr1 GloSensor cGMP, ANP-stimulated luminescence; Potency, µM (titrated, usually from 46.3 µM), for inactives: at the highest dose activity change, negative = inhibition, usual class: inhibitors; active = well fitted inhibition curve with a large enough effect; inconclusive = small, poorly fitted or top-dose-only effect; inactive = no such curve, though single readings can be large or run the other way;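 further: nearly all actives have a fitted effect of over 60% in size; nearly all hits also lower the signal before the agonist is added; a reference antagonist and vehicle were the controls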
Target sequence (P16066 whole entry, looked up): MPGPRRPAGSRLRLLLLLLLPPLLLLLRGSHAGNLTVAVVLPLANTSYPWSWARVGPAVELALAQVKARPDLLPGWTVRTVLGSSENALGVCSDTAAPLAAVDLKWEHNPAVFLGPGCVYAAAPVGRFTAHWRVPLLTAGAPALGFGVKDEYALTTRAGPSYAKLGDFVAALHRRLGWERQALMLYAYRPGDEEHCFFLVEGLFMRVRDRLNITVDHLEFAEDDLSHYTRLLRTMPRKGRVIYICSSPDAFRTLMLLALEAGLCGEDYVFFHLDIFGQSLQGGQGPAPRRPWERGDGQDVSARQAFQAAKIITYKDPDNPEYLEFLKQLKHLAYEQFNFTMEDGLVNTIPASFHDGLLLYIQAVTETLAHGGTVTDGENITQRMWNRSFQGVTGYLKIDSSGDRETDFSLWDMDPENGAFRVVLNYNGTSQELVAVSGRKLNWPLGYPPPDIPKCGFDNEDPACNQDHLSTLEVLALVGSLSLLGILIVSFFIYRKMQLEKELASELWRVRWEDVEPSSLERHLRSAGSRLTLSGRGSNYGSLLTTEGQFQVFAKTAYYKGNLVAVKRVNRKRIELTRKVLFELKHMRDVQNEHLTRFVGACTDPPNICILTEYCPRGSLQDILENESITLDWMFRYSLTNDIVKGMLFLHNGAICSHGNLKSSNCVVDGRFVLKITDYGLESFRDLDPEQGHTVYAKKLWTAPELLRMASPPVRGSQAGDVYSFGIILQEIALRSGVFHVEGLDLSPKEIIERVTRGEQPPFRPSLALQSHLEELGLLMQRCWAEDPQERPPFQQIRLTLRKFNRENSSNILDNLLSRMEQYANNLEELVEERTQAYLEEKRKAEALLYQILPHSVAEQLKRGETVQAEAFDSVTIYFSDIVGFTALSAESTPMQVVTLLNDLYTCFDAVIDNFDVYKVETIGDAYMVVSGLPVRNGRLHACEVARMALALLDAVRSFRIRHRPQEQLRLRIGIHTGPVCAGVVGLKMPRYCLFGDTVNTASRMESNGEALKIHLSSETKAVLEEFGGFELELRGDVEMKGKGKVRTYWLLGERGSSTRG
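Compound pre-incubated 30 min at room temperature on GloSensor-loaded HEK293 cells stably carrying hNpr1 and the pGS-40F cGMP biosensor. Stimulation uses hNppA at 0.1 nM final; luminescence is taken at baseline and 20 min post-agonist.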
* = called active by the depositor; ? = inconclusive; [ ] = dose if it differs, or a comment. On the % scale 0 is the no-effect control and ±100 the full control effect; potency means the concentration at half of the fitted maximal effect. An excerpt; the hit share may differ from the screen's.

SMILES	NPR1 antag
COC(=O)c1ccccc1C(=O)N1CCNC(=O)C1Cc1ccccc1 (stereo not drawn)	-1%
C=CCN1CC(C(=O)N2CCC3(CCC(=O)N(C4CC4)C3)CC2)CC1=O (stereo not drawn)	7%
Cn1cncc1CNC(=O)c1cc(-c2ccc(F)cc2)cc2ncn(C)c12	0%[70.6 µM]
CN(C)CC1(O)CCCN(Cc2cc3ccccc3n2C)C1 (stereo not drawn)	1%
COc1ncc(-c2n[nH]c3c2CC(=O)N(Cc2ccccc2)C3)cn1	1%[70.6 µM]
O=C1Nc2cc(Cl)ccc2C(=O)N2CCN(C(=O)C3CCCCC3)C[C@H]12	3%[70.6 µM]
COC[C@@H]1[C@H](NC(=O)c2ccc(OCCNC(C)=O)cc2)[C@@H]2CCO[C@H]12	-9%
CC(C)CNc1ccc2c(n1)C(C)(C(=O)N1CCC1)CN(Cc1ccccc1)C2 (stereo not drawn)	6%[70.6 µM]
CC(C)C(=O)N1CCCC(Cc2nc(C3CCOCC3)no2)C1 (stereo not drawn)	-17%
CC1=NS(=O)(=O)N(C)C=C1C(=O)OCc1nc(Cc2ccccc2C)no1	-27%
COc1ccccc1-c1nc2cnccn2c1NCCC(=O)N1CCc2ccccc21	-8%
O=C1CCCCC(CNC(=O)c2ccncc2)N1 (stereo not drawn)	4%
Cc1ccc(C)c(CN2C(=O)NC3(CCN(C(=O)c4ccncc4)CC3)C2=O)c1	-20%
O=C(N[C@H]1CCN2C(=O)N(c3cccc4nsnc34)C(=O)[C@@H]2C1)c1ccc(F)c(Cl)c1	-6%
Fc1ccc(OC2CN(Cc3cncs3)C2)cc1F	-12%[70.6 µM]
COc1cccc(CN2C(=O)OC3(CCN(C(C)=O)CC3)C2(C)c2cccnc2)c1 (stereo not drawn)	2%[70.6 µM]
CS(=O)(=O)N1CC(F)(F)C[C@H]1c1nc(C2CC2)no1	2%
CCOc1ccc(C(=O)N2CCN(C(=O)c3nnn4c3COC(c3ccc(Cl)cc3)C4)CC2)cc1 (stereo not drawn)	-4%
CN(C)c1ccc2nnc(-c3cc(C(=O)Nc4cccc(Cl)c4)ccn3)n2n1	-17%[70.6 µM]
COc1cccc(NC(=O)N[C@H]2[C@H](O)[C@@H](N3CCN(C)CC3)[C@@H]3OC[C@H]2O3)c1	6%[70.6 µM]
O=C(O)COc1ccc(-c2nccc3c2C(=O)N(Cc2c[nH]c4ccccc24)CC(COc2ccc(F)cc2F)O3)cc1 (stereo not drawn)	3%
O=C1NCCN2CC3(CCN(C(=O)CC4CCCCC4)CC3)CC12 (stereo not drawn)	1%
O=C(C1CCC1)N1CCC(N(C(=O)C2CC2)C2CCOCC2)CC1	2%
O=C(N1CCN(S(=O)(=O)c2cccc(F)c2)CC1)N1CC2CC(C1)[C@H]1CCCC(=O)N1C2 (stereo partly drawn)	2%
O=C(NCCn1ccn2nc(-c3ccc(F)cc3)cc2c1=O)c1ccc2[nH]ccc2c1	0%
N#Cc1ccc(OCC2CN(Cc3c[nH]c4ccccc34)C(=O)c3c(ccnc3-c3ccc(OCC(=O)O)cc3)O2)cc1 (stereo not drawn)	4%
COc1cccc2c1OCC(C(=O)NCCc1noc(-c3ccccc3)n1)C2 (stereo not drawn)	4%
Cc1ccsc1CN1CCCC(O)(CN(C)C)C1 (stereo not drawn)	-1%
O=C(Nc1ccccc1)C1CCN(C(=O)N2CC3CC(C2)[C@H]2CCCC(=O)N2C3)CC1 (stereo partly drawn)	-5%
CNC(=O)[C@@H]1C[C@H](Oc2ccccc2)CN1C(=O)c1ccc(Cn2nc(C)cc2C)o1	-1%
CN(Cc1cccc(CCN)c1)Cc1cnn(-c2ccc(F)cc2)c1	1%
Cc1ccc(C(=O)NCc2nnc3cc(-c4nc(C(C)C)no4)ccn23)cc1	3%
Cc1ccc(OCC(=O)N2CCC(c3noc(-c4cnccn4)n3)C2)cc1 (stereo not drawn)	1%
O=C([C@@H]1C[C@H](Oc2ccccc2)CN1C(=O)C1(c2ccccc2)CC1)N1CCCC1	-3%
Oc1ccccc1CN1CCOC[C@H]1c1ncc(-c2ccc(C(F)(F)F)cc2)[nH]1	?
CCS(=O)(=O)Nc1ccc(C)n(CC(=O)NCc2cccc(Br)c2)c1=O	-12%
CC(C)NC(=O)C1CCN(C(=O)N2CC3CC(C2)[C@H]2CCCC(=O)N2C3)CC1 (stereo partly drawn)	2%
CN(C)Cc1nnc(C2CC(NC(=O)c3ccc4nccn4c3)C2)n1C (stereo not drawn)	-1%
CCOc1ccc2c(n1)CCN(C(=O)c1ccnn1C)C2	0%
COc1ccc(-n2cc(-c3ccnc(NCCC4CCCN4C)n3)cn2)cc1 (stereo not drawn)	0%
CCOc1ccccc1CN1CCC2(CCN(C(=O)c3ccc(OC)cc3)CC2)Oc2ccccc21	0%
CC(NC(=O)c1coc(COc2ccc3c(c2)OCO3)n1)c1ccc2[nH]ccc2c1 (stereo not drawn)	-3%
COCCn1c(=O)c2c(n1Cc1ccccc1)CN(C(=O)Cc1ccc3c(c1)OCO3)CC2	-7%
Cc1cccc(NC(=O)Cn2ccn3nc(-c4ccc(F)cc4)c(CO)c3c2=O)c1C	5%
Cc1cccc(-n2nc(-c3c(C)nc4scc(CC(=O)NC(C)C)n4c3=O)cc2C)c1	-1%
COc1ccc(NC(=O)CCC2CCN(S(=O)(=O)c3ccc(C)cc3)CC2)cc1F	-21%
Cc1cc(NC(=O)c2cc(-c3ccc[nH]3)n[nH]2)ccc1F	-20%
CCc1nnc2ccc(NC3CC3)nn12	4%
Cc1noc(C)c1CCc1nc(C2CCOCC2)n[nH]1	-1%
Cn1cnc(S(=O)(=O)N2CCC3(CC2)NCCc2c3[nH]c3ccccc23)c1	1%
CCn1ccc(C(=O)NC2CCN(C(=O)N3CC4CC(C3)[C@H]3CCCC(=O)N3C4)CC2)n1 (stereo partly drawn)	1%
Oc1ccccc1CN1CCC(n2cc(-c3ccc(F)cc3)nn2)CC1	-6%
COc1ccc(-c2noc(-c3cccn3CC(=O)Nc3ccc(C)cc3Cl)n2)cc1F	-2%
COc1ccc(-c2noc(-c3cccn3CC(=O)Nc3ccc(NC(C)=O)cc3)n2)cc1F	-23%
O=C(NCc1ccc(F)cc1)NC1CCN(C(=O)N2CC3CC(C2)[C@H]2CCCC(=O)N2C3)CC1 (stereo partly drawn)	0%
Cc1cnc(C(=O)N2CCC(N3C(=O)C4(CCCC4)C3c3scnc3C)CC2)cn1 (stereo not drawn)	4%
CN1CCN(c2cc(=O)c3ccnc(-c4ccccc4Oc4ccccc4)c3o2)CC1	5%[70.6 µM]
CN(C)S(=O)(=O)N1CCN(C(=O)Cn2nc3c(cc2=O)CCCCC3)CC1	-1%
O=C(CC1CCOCC1)NCc1cccc(F)c1	1%
O=C(O)c1cn2ccnc(-c3ccccc3)c2n1	2%

Seven structures from above, arranged by molar mass, rising.
SMILES	NPR1 antag
O=C(O)c1cn2ccnc(-c3ccccc3)c2n1	2%
Cc1noc(C)c1CCc1nc(C2CCOCC2)n[nH]1	-1%
CN(C)S(=O)(=O)N1CCN(C(=O)Cn2nc3c(cc2=O)CCCCC3)CC1	-1%
Cc1cccc(NC(=O)Cn2ccn3nc(-c4ccc(F)cc4)c(CO)c3c2=O)c1C	5%
CCn1ccc(C(=O)NC2CCN(C(=O)N3CC4CC(C3)[C@H]3CCCC(=O)N3C4)CC2)n1 (stereo partly drawn)	1%
COCCn1c(=O)c2c(n1Cc1ccccc1)CN(C(=O)Cc1ccc3c(c1)OCO3)CC2	-7%
O=C(NCc1ccc(F)cc1)NC1CCN(C(=O)N2CC3CC(C2)[C@H]2CCCC(=O)N2C3)CC1 (stereo partly drawn)	0%

3 entries drawn at random from those above, as already listed:
SMILES	NPR1 antag
Cc1cc(NC(=O)c2cc(-c3ccc[nH]3)n[nH]2)ccc1F	-20%
CCc1nnc2ccc(NC3CC3)nn12	4%
Cc1noc(C)c1CCc1nc(C2CCOCC2)n[nH]1	-1%

(continued)
SMILES	NPR1 antag
CCCN(C)C(=O)CC1Sc2ncccc2N(CCC)C1=O (stereo not drawn)	0%
COC[C@@H]1CN(C(=O)CCc2c(C)nn(C)c2C)C[C@H]1c1ccncc1	-2%
CCOCCOC1CCN(C(=O)c2ccccn2)CC1	10%
CN1CCCC1c1nc(C2CN(C(=O)c3ccsc3)C2)no1 (stereo not drawn)	7%
COc1cccc(CN(C)S(=O)(=O)c2cccc(C(=O)NCCF)c2)c1	-1%
COc1cccc(CN2Cc3c(CN(C)Cc4ccccc4)nnn3CCC2=O)c1	0%[70.6 µM]
CC(=O)NCc1cn[nH]c1-c1ccc(Cl)cc1	4%
O=C(NC1CC1)c1ccc2c(c1)OCCN(c1cccc(OC(F)(F)F)c1)C2	?
Cc1ccc(F)c(C(=O)N[C@H](Cc2ccccc2)C2CC(O)C2)c1Cl (stereo partly drawn)	2%
O=[N+]([O-])c1ccccc1CN1C[C@H](O)C[C@H]1c1nc(-c2ccc(F)cc2)no1	-26%[70.6 µM]
Fc1ccccc1CNc1cc(Cl)nc2ccnn12	?
COCCOc1ccc2c(n1)CCN(C(=O)CCC1CCCC1)C2	11µM*
CCN1c2cc(C(=O)Nc3cccc(SC)c3)ccc2C(=O)N2CCCCCC21 (stereo not drawn)	?
CCc1nc(NC(=O)NCc2cccnc2)nn1C	-5%
CCN1C(=O)CCC2(C(=O)NCc3ccc(OC)c(OC)c3)CCCC=C12 (stereo not drawn)	-14%
COc1ccc(C(=O)NCc2nnc3ccc(-c4ccc(C)cc4)nn23)cc1F	4%
Cc1csc(Nc2ccc3ncn(C)c(=O)c3n2)n1	2%[70.6 µM]
Cc1nn2c(c1-c1ccccc1C(C)C)N(C(=O)c1cnccn1)CCC2	3%[70.6 µM]
CNC(=O)c1ccc(Cn2cc(-c3nccn3C)nn2)o1	2%
COCC1CN(Cc2cccc(C(F)(F)F)c2)CC12CCNCC2 (stereo not drawn)	2%
Cc1nc(C2CCCN(C(=O)CN)C2)cc(N2CCOCC2)n1 (stereo not drawn)	1%
COc1ccccc1N1CCN([C@@H]2[C@H](O)[C@H](CO)O[C@@H]2CNCc2cccc(Cl)c2)CC1	-3%
O=C(c1cccc(F)c1)N1CCCC(Cc2noc(-c3ccncc3)n2)C1 (stereo not drawn)	-17%
Cc1nc(N2CCC(NC(=O)c3ccsc3)CC2)cc(C(F)(F)F)n1	-1%
O=C(NCCOc1ccccc1)C1CNCCO1 (stereo not drawn)	1%
O=[S+]([O-])(c1cccs1)N1CCN(c2nc3ncccc3o2)CC1	-16%
CCCc1nc(C(=O)N2CCOCC(O)(CN3CCCC3)C2)cs1 (stereo not drawn)	10%
CN1CCc2c([nH]c3ccccc23)C12CCN(C(=O)c1ccncc1)CC2	0%
CCn1nccc1C(=O)N1C[C@@H](Oc2cccnc2)C[C@H]1C(=O)NC	4%
Cc1ccc(C(=O)N2CC(C(=O)NC3CCCCC3)C3(CCOCC3)C2)cc1 (stereo not drawn)	4%
COc1ccc(C(=O)N2CCN(c3nnc4ccc(Cl)cn34)CC2)cc1	-1%
Cc1cc(=O)n(CC(=O)Nc2ccc(F)cc2)c(N2CCC(C)CC2)n1	-17%
O=C(Nc1ncc(-c2ccccc2)c2c1OCC2)c1cn[nH]c1	5%[70.6 µM]
N#Cc1cccc(CN[C@@H]2CO[C@H](CNC(=O)c3ccncc3)[C@H]2O)c1	5%[70.6 µM]
COc1ccc(CN2C[C@@H](CO)[C@H](NC(=O)C3CC3)C2)cc1	0%
CCOC(=O)c1cccc(NC(=O)N2CC[C@@H](CC(=O)Nc3ccccc3)[C@@H](CC)C2)c1	-1%
O=C(NC1C[C@H]2CC[C@@H](C1)N2C(=O)Cc1cccc(F)c1)c1ccncc1 (stereo partly drawn)	6%
O=C(C1CCN(c2nc(-c3ccccc3)nc3c2CCC3)CC1)N1CCC[C@H]1CO	-20%
O=C(c1ccc(Br)cc1)N1CCN(c2cc(-c3ccccc3)[nH]n2)CC1	-23%
O[C@H]1[C@H](NCc2cnc3ccccc3c2)[C@@H](c2cccnc2)C[C@H]1O	11%[70.6 µM]
O=C(Nc1ccc([C@H]2OCC(=O)N(Cc3ccc(F)cc3)[C@@H]2CO)cc1)C1CCC1	2%[70.6 µM]
O=C(Cn1nc2c(cc1=O)CCCCC2)NCCn1c(=O)c(=O)[nH]c2ccccc21	0%
COC[C@H]1CCCN1C(=O)CC[C@H]1CNC(=O)[C@@H]2[C@@H](CCN2Cc2ccc(O)cc2)N1C	1%
CCOCc1nc(C2CCCN2C(=O)Nc2ccccc2F)no1 (stereo not drawn)	-11%
Cc1ccccc1NC(=O)N1CCC(CCNC(=O)C2(c3ccccc3)CC2)CC1	0%
COC[C@@H]1CN(C(=O)CCc2ccc(OC)cc2)C[C@H]1C(N)=O	-6%
O=C(Cn1ccn2nc(-c3ccc(F)cc3)c(CO)c2c1=O)Nc1ccc2c(c1)OCO2	0%
O=C(CCc1ccc(=O)[nH]n1)N1CCC2(CCCNC2=O)C1 (stereo not drawn)	7%
